# Bioassay records from PubChem BioAssay.
# TRPV1 PAM: enhances activation of the human vanilloid receptor TRPV1; Q8NER1; TRPV1-expressing cells, Fluo-8 calcium influx, capsaicin EC20 potentiation; host cell line not named in the record; control for the full effect not named in the record; potentiation, % at 8.33 µM; hit rate 0.02% among 320,000; active means potentiation above 80%; inconclusive means 30% to 80%; inactive means below 30%; further: 0% is about no effect
# Target sequence (Q8NER1 whole entry, looked up): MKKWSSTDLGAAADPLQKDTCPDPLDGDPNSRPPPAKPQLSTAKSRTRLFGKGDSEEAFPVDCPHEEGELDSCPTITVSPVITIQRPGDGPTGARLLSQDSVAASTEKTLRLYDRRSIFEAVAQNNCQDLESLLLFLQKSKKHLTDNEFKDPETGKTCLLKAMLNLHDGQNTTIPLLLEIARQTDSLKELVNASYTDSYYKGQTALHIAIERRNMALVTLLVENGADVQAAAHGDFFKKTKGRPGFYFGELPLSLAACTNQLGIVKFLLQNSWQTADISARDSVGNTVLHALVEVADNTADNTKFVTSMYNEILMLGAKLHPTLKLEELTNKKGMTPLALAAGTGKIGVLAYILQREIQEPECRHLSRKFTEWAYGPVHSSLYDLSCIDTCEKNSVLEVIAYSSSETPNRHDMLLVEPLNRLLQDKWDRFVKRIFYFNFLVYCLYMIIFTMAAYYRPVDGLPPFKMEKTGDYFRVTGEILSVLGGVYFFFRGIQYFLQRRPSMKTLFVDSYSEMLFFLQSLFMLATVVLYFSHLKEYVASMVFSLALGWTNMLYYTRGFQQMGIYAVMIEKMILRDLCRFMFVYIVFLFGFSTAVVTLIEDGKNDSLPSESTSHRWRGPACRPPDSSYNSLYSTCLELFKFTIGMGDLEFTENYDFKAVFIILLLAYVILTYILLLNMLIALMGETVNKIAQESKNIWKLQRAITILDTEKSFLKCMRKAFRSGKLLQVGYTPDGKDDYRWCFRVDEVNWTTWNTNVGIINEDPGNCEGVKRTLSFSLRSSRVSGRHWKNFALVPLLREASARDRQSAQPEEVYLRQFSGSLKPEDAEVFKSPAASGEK
#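 Cells expressing TRPV1 were dye-loaded with Fluo-8 and read kinetically: 10 s baseline, 3 min after compound (agonist portion), then 2 min after EC20 capsaicin (allosteric enhancer portion). Calcium-bound dye fluorescence at 480/520 nm.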
# Menin MLL FP FL: menin-MLL binding inhibition, fluorescein peptide; FP activity change, % at 61.4 µM; Fluorescence polarization, fluorescein-MLL peptide displacement from menin; 290,000 tested, under 10 active; inconclusive = falling polarisation curve, or a change in total fluorescence; inactive = total fluorescence flat and polarisation flat or rising; no compound was filed as active; the % refers to the polarisation; negative = inhibition;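 further: % of control where 0% means no effect; inhibitors lower the polarisation; unlabelled MLL peptide was the positive control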
# gsp ag: agonists of gsp mutant (McCune-Albright syndrome). hit rate 0.13% among 340,000. AID 624287. gsp mutant cells, cAMP HTRF, 30 min; control for the full effect not named in the record. Potency, µM (highest dose often 76.9 µM), for the others: at the top dose activation (cAMP increase), most hits filed as activators; active = well fitted activation curve with a large enough effect; inconclusive = small, poorly fitted or top-dose-only effect, or another doubt; inactive = no such curve, though single readings can be large or run the other way; cell line not stated here;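 further: phosphodiesterase inhibitor Ro 20-1724 added with compounds to block cAMP breakdown; potency means the concentration at half of the fitted maximal effect; nearly all actives have a fitted effect of over 60% in size; about a fifth of the inactives were tested at one dose only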
#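 Cells stably selected in G418 were plated at 2000/well, grown 16-24 hr, then given compounds in DMSO with the PDE inhibitor […] (300 uM solution added) for 30 min at 37C; cAMP was read by HTRF.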
# gsp antag: antagonizes gsp, the McCune-Albright syndrome mutation | gsp-mutant cells, cAMP HTRF, 30 min; control for the full effect not named in the record | Potency, µM (series often up to 76.9 µM), without a hit: at the top dose activity change, negative = inhibition, hits mostly inhibitors | hit rate 0.4% among 340,000 | AID 624288; active = falling curve of any shape with a large fitted effect; inconclusive = falling curve, mostly with a smaller effect; inactive = flat or rising curve; cell line not stated here;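 further: intracellular cAMP measured with PDE inhibitor Ro 20-1724 present during compound exposure; potency means the concentration at half of the fitted maximal effect; on the % scale 0 is the no-effect control and ±100 the full control effect; nearly all actives have a fitted effect of over 65% in size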
#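 Cells in G418 medium, seeded 16-24 h, 37C; buffer exchange to DPBS + 1 mM CaCl2, 0.5 mM MgCl2, 0.05% BSA; cpds in DMSO + […] (300 uM stock), 30 min 37C; HTRF cAMP detection.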
# ClpP mod: qHTS Assay for Activators of ClpP; ATP-dependent Clp protease proteolytic subunit (Bacillus subtilis (strain 168)), P80244; purified B. subtilis ClpP, FRET peptide cleavage, 20 min; Potency, µM (highest dose often 57.5 µM), for the others: top-dose activity change, negative = active; hit rate 1.9% among 340,000; AID 651965, 2013; active = well fitted falling curve with a large enough effect; inconclusive = small, poorly fitted or top-dose-only effect; inactive = no such curve, though single readings can be large or run the other way; further: potency means the concentration at half of the fitted maximal effect; the source files actives as falling curves though it sought activators and does not explain the sign; nearly all actives have a fitted effect of over 65% in size; many hits overshoot -100%
# Target sequence (P80244 whole entry, looked up): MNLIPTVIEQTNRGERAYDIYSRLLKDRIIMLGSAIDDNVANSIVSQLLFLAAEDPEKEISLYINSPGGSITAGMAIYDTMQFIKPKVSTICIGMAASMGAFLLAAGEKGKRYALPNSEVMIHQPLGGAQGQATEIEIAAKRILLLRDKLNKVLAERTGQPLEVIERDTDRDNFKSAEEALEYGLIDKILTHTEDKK
#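 Buffer: 100 mM Tris/HCl pH8, 100 mM KCl, 0.05% low protease BSA, 2.5% glycerol, 0.01% Tween-20. ClpP 10 microg/mL final; 20 min RT; delta FRET normalized to ADEP and DMSO controls.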
# TRPML1 inh: human mucolipin-1 channel inhibition | TRPML1-inducible cells, Ca2+ dye fluorescence, FDSS; stronger effect = lower value; inhibition of EC80 agonist-evoked calcium signal | activity change, negative = inhibition, % (test concentration not listed) | hit rate 0.02% among 390,000; in the data active means activity change below about -50%; inconclusive means about -30% to -50%; inactive means above about -30%;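 further: stimulus is agonist 54-4 at its EC80 concentration; on the % scale 0 is the no-effect control and ±100 the full control effect; compound concentration not given in the record; the text of the record puts the active cut at -80%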
#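 Tet-induced TRPML1-DL cells loaded with Ca8 no-wash calcium dye were read kinetically on FDSS. Compound addition was followed by EC80 agonist 54-4 (4 uM final); inhibition was read over 110 s.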
# Sfp inh: inhibitors of Bacillus subtilis Sfp phosphopantetheinyl transferase; Biochemical Sfp PPTase activity, qHTS; Q9F4F7; hit rate 3.5% among 310,000; Potency, µM, for inactives: max response, negative = inhibition, usual class: inhibitors; active means well fitted inhibition curve with a large enough effect; inconclusive means small, poorly fitted or top-dose-only effect, or another doubt; inactive means no such curve, though single readings can be large or run the other way;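 further: the enzyme is Sfp with the accession as filed and its product quenches rhodamine fluorescence; potency means the concentration at half of the fitted maximal effect; 0% = enzyme reaction without inhibitor and -100% = no enzyme wells; top concentration of the series not given in the record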
#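 With Hepes-Na pH 7.6 buffer containing 10 mM MgCl2, Sfp (15 nM) modified BHQ-2-YbbR (12.5 uM) using rhodamine-CoA (5 uM). Two reads 30 minutes apart at 525/598 nm yielded each well's rate.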
# * marks the source's active call; other numbers are inactive results; ? = inconclusive; nt = not tested or not shown; [ ] = another dose, or the depositor's remark. The order is random; overall some 4.9% were active at least once.
SMILES,TRPV1 PAM,Menin MLL FP FL,gsp ag,gsp antag,ClpP mod,TRPML1 inh,Sfp inh
Fc1ccc2nc(C3CCN(Cc4nc(CC5CC5)no4)CC3)[nH]c2c1,-4,0.6,?,-5%,-1.5%,16,-10%
CCOC(=O)C1CCCN(C2=NC(=O)/C(=C/c3ccc(OC)c(OC)c3)S2)C1 (stereo not given),8,7.0,9%,-2%,-4.0%,-15,7%
CN(C(=O)c1ccc(COc2ccccc2Cl)o1)c1ccccc1,10,-3.4,-49%[inhibitor],-12%,-4.0%,nt,-5%
COc1ccccc1OCC(=O)N/N=C1\CCCCc2ccccc21,nt,3.7,6%[15.4 µM],-2%,nt,-5,-1%
O=C(CN1CCCCCC1)Nc1ccc(Cl)cc1F,-13,-3.1,-7%[15.4 µM],4%,nt,1,-1%
COc1ccc(OC)c(NC2=NC3(CCCC3)N=C(N)N2)c1,16,1.0,-1%,14%,-1.0%,-6,-16%
CC1(C)N=C(SCC(=O)Nc2ccc(Cl)cc2)C(c2ccccc2)=N1,-18,1.0,?,?,0.1%,-7,9%
Cc1ccc(S(=O)(=O)CCC(=O)Nc2nnc(-c3cccs3)o2)cc1,5,nt,10%[15.4 µM],-8%,?,17,nt
C=C(C)CSc1nnc2n(Cc3ccccc3)c(=O)c3c4c(sc3n12)CCC4,-16,-1.7,?,1%,-2.4%,10,1%
COc1ccc(N2C(=S)NC3c4cc(Cl)ccc4OC2(C)C3C(=O)N(C)C)cc1 (stereo not given),6,-2.7,2%,7%,nt,5,1%
C=CCn1c(SCC(=O)NCc2ccco2)nc2sc3c(c2c1=O)CCCC3,-10,0.3,14%,6%,-20%,-2,26%
Nc1[nH]n2c(=O)cc(-c3ccccc3)nc2c1N=Nc1ccccc1,-7,1.1,-12%,?,6.4%,8,12%
C#Cc1ccc(CN2CCN(CCCc3ccccc3)C(CCO)C2)cc1 (stereo not given),-12,0.9,-10%,5%,nt,0,15%
CCC1CCCCN1C(=O)c1cc(COc2ccc3ncccc3c2)on1 (stereo not given),-15,-1.1,-21%[15.4 µM],?,nt,6,6%
CN(C)C(=O)c1cc(C(=O)c2ccc(F)cc2F)c[nH]1,-6,-3.3,?,1%,nt,25,8%
COc1cccc(CNC(=O)C(=O)NCCC2CCCCN2S(=O)(=O)c2cccs2)c1 (stereo not given),20,nt,-8%,-2%,1.5%,3,nt
CCN(CC)S(=O)(=O)c1ccc(N/N=C/c2ccc(OC)c(OC)c2OC)nc1,-4,3.7,?,23%,-26%,-4,-11%
CC(C)(C)C(=O)CSc1ccc(S(=O)(=O)N2CCCC2)cn1,5,nt,-1%,-3%,-1.8%,-5,nt
CCCS(=O)(=O)N1CCCC(C(=O)NCCN(C)Cc2ccccc2)C1 (stereo not given),21,4.6,-18%,0%,-2.0%,-5,-3%
CCOC(=O)C1=C(C)Nc2nc3ccccc3n2C1c1cccs1 (stereo not given),-8,0.7,-3%,2%,-2.0%,36,17%
COC(=O)[C@H](C)NC(=O)NCc1ccco1,-6,0.7,13%,-8%,-1.1%,0,14%
CCN(CC)CCNC(=O)CCc1c(C)nc2c(c(C)nn2-c2ccc(C)c(C)c2)c1C,-9,0.2,19%,13%,4.1%,nt,-15%
O=C(/C=C/c1ccc(OCCCF)cc1)NCc1ccc(Cl)c(Cl)c1,-5,4.8,0%,-4%,-6.9%,6,17%
CN(c1ccc(C(=O)NCCSCc2c(F)cccc2Cl)cc1)S(C)(=O)=O,-44,-1.5,0%,20%,-1.0%,-10,12%
CC(=O)N1CCN(S(=O)(=O)c2cccc(C(=O)Nc3ccc4c(c3)OCO4)c2)CC1,-5,-3.1,2%[15.4 µM],11µM*,nt,1,6%
O=C(Nc1cccc(Br)c1)c1cc2ccccc2o1,-4,0.1,-47%[inhibitor],-19%,-18%,62,?
CC(C)CC(=O)c1c[nH]c(C(=O)NCc2cccnc2)c1,2,-2.1,-23%[15.4 µM],-5%,nt,-9,-1%
CCOC(=O)CC1(NC(=O)C2CCC(=O)N(Cc3ccccc3F)C2)CCCCC1 (stereo not given),-1,-8.7,2%,8%,-2.9%,19,18%
Cc1ccnc(NS(=O)(=O)c2ccc(NC(=O)c3ccc(C)o3)cc2)n1,4,3.9,-2%,-1%,1.1%,4,11%
COc1cccc(N2CCN(c3ncccn3)CC2)c1,18,4.1,-27%,-1%,-3.6%,5,10%
NNC(=O)CNC(=O)c1ccc(F)cc1,0,9.3,18%[15.4 µM],15%,nt,44,6%
O=c1nc2sc3ccccc3n2c(=O)n1-c1ccc(Cl)cc1,20,4.0,-6%[15.4 µM],11%,-4.6%,39,4%
COc1ccc(NC(=O)N2CCC(C(=O)c3ccc(F)cc3)CC2)cc1,-20,2.4,-27%,-4%,0.8%,-2,4%
CC(=O)Nc1nnc(-c2c(-c3ccccc3Cl)noc2C)o1,nt,-6.5,3%[15.4 µM],-7%,nt,10,10%
C[C@@H]1CN([C@H](C)CO)C(=O)c2cc(Br)cnc2O[C@@H]1CN(C)C(=O)Nc1ccccc1,nt,nt,25%,nt,-1.8%,-3,nt
NC(=O)C1CCN(C(=O)COc2ccc3ccccc3c2Br)CC1,-21,nt,18%,1%,?,-14,7%
Cc1ccc(S(=O)(=O)NCCCCCC(=O)Nc2ccccc2)cc1,-2,0.6,0%,-1%,28µM*,16,10%
COc1ccc(C(=O)C2CCCN(Cc3cn[nH]c3-c3ccc(F)cc3)C2)cc1OC (stereo not given),10,2.5,-13%,0%,nt,4,10%
CN(C)c1ccc(N=Nc2cccc(F)c2)cc1,10,1.2,0%[15.4 µM],-6%,nt,-3,-10%
O=C(CCNS(=O)(=O)c1ccc(Cl)cc1)N1CCOCC1,-8,-2.6,-10%,1%,1.2%,42,14%
O=C(Nc1ccc(Nc2ccccc2)cc1)c1ccccc1,nt,nt,-36%[inhibitor],-2%,1.1%,?,nt
COc1ccc2c(c1)OC(O)(C(F)(F)F)CC2=O (stereo not given),-1,5.1,-6%,11%,-3.2%,-2,-3%
CC(C)CN1C2CCCC1CC(NC(=O)c1ccc([N+](=O)[O-])cc1)C2 (stereo not given),7,-5.4,?,-11%,-2.5%,-1,-1%
CCN(CC)c1ccc(NC2CC(=O)N(CCc3ccc(OC)cc3)C2=O)cc1 (stereo not given),6,5.5,-2%[15.4 µM],0%,nt,-23,32µM*
Cc1nn(C)c(C)c1N1C(=O)c2cccc3c(Br)ccc(c23)C1=O,?,-0.3,13µM*,2%,-1.1%,-12,?
Clc1ccc(-c2ccnc(-n3cccc3)n2)s1,-3,3.1,?,5%,4.9%,26,-2%
COc1ccc(/C=C/C(=O)c2ccc(Cl)s2)cc1O,?,3.1,6%,6%,-0.3%,-3,-2%
CC1CCN(C(=O)c2cccc(S(=O)(=O)N3CCCCC3)c2)CC1,-16,1.6,24%,-5%,1.5%,43,12%
CCCCc1ccc(NC(=O)c2ccc(NS(C)(=O)=O)cc2)cc1,-26,-1.2,12%,6%,nt,-6,12%
CC(C)[C@@H](N)C(=O)NC[C@H]1O[C@@H](n2cnc3c(N)ncnc32)[C@H](O)[C@@H]1O,nt,nt,nt,-6%,-1.1%,22,nt
OCCCn1c(C2CCCN2c2nc(-c3ccc(Cl)cc3)cs2)nc2cc(Cl)c(N3CCCCC3)cc21 (stereo not given),nt,nt,-23%,-15%,-3.6%,-21,nt
CCCCN(C(=O)COC(=O)c1ccc(C)s1)c1c(N)n(CCC)c(=O)[nH]c1=O,nt,nt,-5%,3%,1.6%,?,nt
COc1ccccc1NC(=O)NNC(=O)c1ccc2ccccc2c1,-1,0.1,35%,5%,43%,-3,0%
COc1cc(C(=O)Nc2ccc3c(c2)OCO3)c([N+](=O)[O-])cc1OC,1,6.2,-34%[inhibitor],-19%,-8.7%,-26,9%
CCOC(CNC(=O)c1ccc2c(c1)ncn2-c1ccccc1OC)OCC,14,0.8,-13%,-4%,nt,-8,12%
O=C(c1ccc(Cl)cc1)C1CCCN(Cc2cccn2-c2cccnc2)C1 (stereo not given),0,1.9,-1%[15.4 µM],-8%,nt,3,15%
COc1ccc(S(N)(=O)=O)cc1C(=O)OCC(=O)Nc1ncc(Cl)c(C)c1Cl,nt,nt,?,4%,nt,22,nt
CC1(C)CC(O)C(CCC(O)c2ccccc2)C(C)(C)N1 (stereo not given),7,0.1,5%,6%,-7.6%,5,9%
CCOc1ccc(NC(=O)CNC(=O)c2cn(-c3ccccc3OC)c(=O)c3ccccc23)cc1,12,-6.4,-8%,-5%,-12%,13,4%
N#Cc1ccc2c(c1)C[C@]1(CCCCN3C(=O)c4ccccc4C3=O)Oc3cc(-c4ccccc4)oc(=O)c3[C@H]2O1,?,11[11.7 µM],nt,nt,nt,nt,7%
# Further compounds follow:
SMILES,TRPV1 PAM,Menin MLL FP FL,gsp ag,gsp antag,ClpP mod,TRPML1 inh,Sfp inh
O=C(COC(=O)Cc1ccsc1)Nc1ccc(Br)cc1F,-4,nt,-21%,16%,-0.7%,-3,nt
Cc1ccc(-c2csc(N=C(N)N)n2)c(C)c1,nt,6.2,-6%[15.4 µM],6%,nt,15,-13%
CN(Cc1ccccc1)C(=O)c1[nH]cnc1C(=O)N[C@@H](Cc1ccccc1)C(=O)OC(C)(C)C,-12,-2.1,nt,16%,-1.0%,-9,0%
CC(C)C(c1nnnn1CCc1ccccc1)N1CCN(C(=O)c2ccco2)CC1 (stereo not given),-8,-2.0,-5%[15.4 µM],-6%,2.0%,-10,13%
CSCC[C@H](NC(=O)c1ccc(OCC2CCCO2)cc1)c1nc2ccccc2[nH]1 (stereo not given in full),nt,nt,-2%[15.4 µM],6%,1.4%,1,nt
Cc1ccc(SC(C)C(=O)NC2CC2)cc1 (stereo not given),0,nt,-40%[inhibitor],1%,-0.8%,16,15%
CCCSC1=C(C#N)C(c2cccs2)CC(=O)N1 (stereo not given),-6,2.6,-9%[15.4 µM],5%,nt,21,25µM*
CCCOc1ccc(C(NC(=O)CC(C)C)NC(=O)CC(C)C)cc1OC,5,nt,-32%[inhibitor],8%,-15%,9,12%
